# MKP-1 inh – blocks human MKP-1 phosphatase activity; inhibition, %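 (compounds tested at a single concentration somewhere between 10 and 100 µM)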; P28562; recombinant MKP-1, OMFP hydrolysis fluorescence; hit rate 0.15% among 65,000;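 active = inhibition above about 50%, limit read from the data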;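 also: 0% = DMSO max control wells and 100% = wells with enzyme stopped by NaOH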
# Target sequence (P28562 whole entry, looked up): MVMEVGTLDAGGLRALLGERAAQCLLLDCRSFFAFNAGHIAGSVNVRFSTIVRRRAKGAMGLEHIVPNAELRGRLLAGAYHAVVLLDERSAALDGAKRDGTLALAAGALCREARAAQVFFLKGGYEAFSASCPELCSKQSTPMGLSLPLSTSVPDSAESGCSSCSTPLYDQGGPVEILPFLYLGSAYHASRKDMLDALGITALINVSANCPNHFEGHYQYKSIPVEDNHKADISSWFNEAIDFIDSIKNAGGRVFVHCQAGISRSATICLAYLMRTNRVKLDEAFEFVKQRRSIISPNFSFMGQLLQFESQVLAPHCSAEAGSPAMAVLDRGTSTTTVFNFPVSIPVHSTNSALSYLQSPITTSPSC
# Cdc25B inh – inhibitors of human Cdc25B phosphatase; recombinant Cdc25B, OMFP fluorescence Ex485/Em525; inhibition, %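 (compounds tested at 10 µM final in the well)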; hit rate 0.1% among 65,000; AID 368; in the data active = inhibition above about 50%
# AP ELISA ortho – alternative pathway complement inhibition, orthogonal assay; Human serum alternative complement pathway, LPS-coated ELISA, C3 deposition; tested in compound mixtures; inhibition, % at 5 µM; hit rate 0.08% among 62,000;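 active = inhibition above 30% in each of the two pooled mixtures holding the compound, so the lower value exceeds 30%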;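 also: 0% = serum in Mg-EGTA without compound and 100% = EDTA serum blank; some compounds past the cut are filed as inactive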
#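 Medium: diluted human serum in Mg2+-EGTA GVB++. Assay system: human serum complement alternative pathway, C3 deposition onto LPS. Also added: Plate-bound LPS. Technique: Anti-C3 ELISA, OD 450 nm. Measure: percent inhibition. Incubation: 1 h at 37 °C. Dosing: 5 µM each compound, pools of ten, 50 µM per pool.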
# MMP13 inh – inhibitors of human MMP13. P45452. MMP-13 fTHP FRET cleavage, Mca fluorescence. inhibition, % at 4 µM. hit rate 0.07% among 65,000. AID 570;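 active = inhibition above the mean of compound-free control plate wells plus 3 SD, cut at about 14% in these data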;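 also: 0% = DMSO wells and 100% = wells with reference MMP-13 inhibitor after basal subtraction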
# FXIIa mix inh – factor XIIa (human) inhibition, mixture screen; purified FXIIa, fluorogenic substrate, pooled mixtures; inhibition, % at 5 µM; hit rate 0.2% among 62,000;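 also: 0% = enzyme without compound and 100% = no enzyme blank; some results filed as inactive read as strong as hits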
# Target sequence (P00748 20-372 limits assumed): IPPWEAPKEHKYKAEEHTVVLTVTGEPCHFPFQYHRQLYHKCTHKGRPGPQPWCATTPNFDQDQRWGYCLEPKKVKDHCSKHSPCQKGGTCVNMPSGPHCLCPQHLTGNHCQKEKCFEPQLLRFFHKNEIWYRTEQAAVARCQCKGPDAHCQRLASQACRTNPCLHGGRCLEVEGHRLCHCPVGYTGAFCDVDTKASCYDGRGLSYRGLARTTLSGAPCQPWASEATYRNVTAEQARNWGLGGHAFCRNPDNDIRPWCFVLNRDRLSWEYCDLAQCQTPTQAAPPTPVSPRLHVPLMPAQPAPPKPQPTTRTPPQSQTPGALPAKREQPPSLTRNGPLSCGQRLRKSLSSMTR
# Target sequence (P00748 373-615 limits assumed): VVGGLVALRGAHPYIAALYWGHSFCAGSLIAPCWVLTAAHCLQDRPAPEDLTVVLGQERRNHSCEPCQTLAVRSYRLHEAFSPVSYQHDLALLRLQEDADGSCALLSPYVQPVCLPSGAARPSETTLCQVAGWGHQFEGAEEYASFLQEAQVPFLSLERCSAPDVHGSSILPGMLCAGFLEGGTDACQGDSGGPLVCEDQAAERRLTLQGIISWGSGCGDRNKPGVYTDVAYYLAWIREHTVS
# Hsp90 block – displaces geldanamycin probe from tumor Hsp90; inhibition, % at 30 µM; NCI-N417 lysate Hsp90, Cy3B-geldanamycin FP displacement; hit rate 0.35% among 64,000; AID 429; P07900;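 active = inhibition above 50%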;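 also: 0% = tracer plus lysate wells and 100% = tracer alone without lysate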
# FXIa mix inh – factor XIa (human) inhibition, mixture screen; P03951; purified FXIa, fluorogenic substrate, pooled mixtures; inhibition, % at 5 µM; hit rate 0.19% among 62,000; AID 680;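 also: each value is inhibition by a whole ten-compound pool holding the compound; 0% = enzyme with no mixture and 100% = wells lacking enzyme; strong numbers were not always called active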
# A340 absorber – compound absorbs light at 340 nm; compound absorbance at 340 nm, fold over control; fold change at 10 µM; 65,000 tested, under 10 active; AID 708;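 active = at 10 µM dose, initial 340 nm absorbance at least 2 fold that of control wells; inactive = change under 2 fold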;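 also: initial absorbance extrapolated from kinetic A340 decline of NADH oxidation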
# An asterisk follows results filed as active; nt = no result given; [ ] = remark or other dose. Rule as the data show it, unless noted: active = inhibition above about 20% (passing the limit was not always enough); inactive = the rest. Only part of the results is shown. The share of hits here may be higher or lower than overall.
# Values in the order: MKP-1 inh, Cdc25B inh, AP ELISA ortho, MMP13 inh, FXIIa mix inh, Hsp90 block, FXIa mix inh, A340 absorber
> COc1ccc(/C(O)=C2/C(=O)C(=O)N(CCN(C)C)C2c2ccc(OC)c(OC)c2)c(C)c1 (centres undefined)
→ 2, -19, 22, 0, -1, -4, 0, 1.1
> O=C(C(c1ccccc1)N1CCOCC1)N1CCOCC1 (centres undefined)
→ -16, -15, 6, -2, -31, -3, 6, 1
> COc1cccc(C2=NOC(C(=O)NCc3ccccn3)C2)c1 (centres undefined)
→ 0, -12, 16, 3, -21, 1, 7, 1
> COC(=O)c1ccccc1NC(=O)CN1CCC(NC(=O)c2ccc(C)cc2)CC1
→ 28, -17, 9, 4, 5, -1, 4, 0.99
> O=C(Nc1ccccc1-c1ccccc1)C1CCCN(c2ncccn2)C1 (centres undefined)
→ -12, -12, -2, -6, -4, -3, -11, 1
> Cc1ccc2c(CC(=O)Nc3sccc3C(N)=O)coc2c1
→ 28, 5, 10, 1, 8, -4, 10, 1
> CC1CN(c2cc(=O)n(-c3ccccc3)c(=O)[nH]2)CC(C)O1 (centres undefined)
→ -4, -4, 14, 4, -17, -3, 3, 1
> CC1CN(c2cc(=O)n(Cc3ccc(F)cc3)c(=O)[nH]2)CC(C)O1 (centres undefined)
→ 8, -7, 7, -1, 5, -3, 8, 0.99
> CCn1c(SCC(=O)N2CCN(c3ccccc3F)CC2)nnc1-c1ccoc1C
→ -11, 2, -7, 3, 0, -3, 6, 1
> O=C(C1CCC(Cn2c(=O)[nH]c3ccccc3c2=O)CC1)N1CCN(c2ccccc2)CC1 (centres undefined)
→ 0, -15, -3, 1, -5, -1, 4, 1
> COC(=O)c1sccc1NC(=O)c1ccco1
→ -3, -5, 1, 4, -32, -7, -22, 1
> COc1cccc(N2CCN(C(=O)CN(c3ccc(C)cc3)S(=O)(=O)c3c(C)n[nH]c3C)CC2)c1
→ 20, 4, 3, 13, 4, 3, 2, 1
> O=C(NCCCn1ccnc1)c1ccco1
→ 0, -4, 1, -1, 9, -11, 3, 1
> O=C(NCc1ccc(Cl)cc1)c1ccc(COCC(F)(F)F)o1
→ 5, -5, -6, -6, 12, -5, -2, 0.99
> CCOc1ccccc1CNc1nc2nc3c(c(=O)n2[nH]1)CCC3
→ 20, -1, 16, 0, 6, -2, 5, 1
> O=c1c2ccccc2[nH]c(=S)n1Cc1cccnc1
→ -4, 10, 2, 6, 1, -2, -5, 1.1
> N=C1C(c2nc3ccccc3c(=O)[nH]2)=C(O)CN1CCc1ccccc1
→ 12, -7, 22, -56[fluorescence artefact?], 45, -1, 8, 1.1
> CCOC(=O)N1CCN(C(=O)c2ccc3c(=O)n(Cc4ccc(OC)cc4)c(=S)[nH]c3c2)CC1
→ 22, 4, 0, 4, -18, -4, -2, 0.98
> COC(=O)c1cc(Br)c(=O)n(Cc2ccco2)c1
→ -14, 6, nt, 6, nt, 0, nt, 1
> CCOC(=O)c1c(C)[nH]c(C(=O)OCC(=O)N2CCc3ccccc32)c1C
→ 15, 10, 17, -1, 0, -3, 9, 1

# An excerpt from above with just A340 absorber:
structure	A340 absorber
O=c1c2ccccc2[nH]c(=S)n1Cc1cccnc1	1.1
N=C1C(c2nc3ccccc3c(=O)[nH]2)=C(O)CN1CCc1ccccc1	1.1
CCOC(=O)N1CCN(C(=O)c2ccc3c(=O)n(Cc4ccc(OC)cc4)c(=S)[nH]c3c2)CC1	0.98
COC(=O)c1cc(Br)c(=O)n(Cc2ccco2)c1	1
CCOC(=O)c1c(C)[nH]c(C(=O)OCC(=O)N2CCc3ccccc32)c1C	1

# (listing goes on)
# Values in the order: MKP-1 inh, Cdc25B inh, AP ELISA ortho, MMP13 inh, FXIIa mix inh, Hsp90 block, FXIa mix inh, A340 absorber
> O=C(CN1CCc2ccccc2C1)Nc1ccccc1N1CCCCCC1
→ 34, -13, 16, -1, 4, -13, -1, 1.1
> Cc1cc(=O)n2[nH]c(-c3ccc(F)cc3)cc2n1
→ 0, -14, 4, -27, -13, 3, 8, 0.99
> CC(=O)NC(Cc1ccc(C(C)C)cc1)C(=O)NC1CCN(c2nc(C)cc(C)n2)CC1 (centres undefined)
→ 25, 0, -5, -1, 4, 0, 7, 1
> CCOC(=O)CSc1nnc(NCC(=O)OC(C)C)c(=O)[nH]1
→ 14, -18, 24, -11, 4, -2, 2, 1
> O=C(O)c1ccccc1NS(=O)(=O)c1cccc2cccnc12
→ -8, -13, -8, -3, 0, -6, 1, 1
> CCOC(=O)CC(=O)CSc1ncc(C(=O)OCC)c(N)n1
→ 6, -1, 10, -1, 3, -1, 9, 1
> Cc1ccc(Cl)cc1N1CCN(Cc2nnnn2Cc2ccco2)CC1
→ 31, -21, 7, 2, 3, 0, 3, 0.99
> Cc1n[nH]c(=O)nc1N1CCc2ccccc2C1
→ 0, 0, 8, 2, -1, -2, 10, 1.1
> CCOC(=O)N1CCN(C(=O)c2ccc3c(=O)n(CCC4=CCCCC4)c(=S)[nH]c3c2)CC1
→ 12, -12, 11, 4, 9, -5, 0, 1
> Cc1cc(NC(=O)CN2CCN(Cc3ccccc3)CC2)nc2c1c(=O)oc1ccccc12
→ 14, -10, 8, 7, -14, -4, 5, 1.1
> CSCC[C@@H](C(=O)O)N1Cc2ccccc2C1=O
→ 5, -6, 13, 3, 2, 0, 10, 1
> COc1ccc(CCNC(=O)Cn2nnc(-c3ccc(N4CCOCC4)cc3)n2)cc1OC
→ 1, -1, -6, 3, 3, -3, 5, 1
> Cc1ccc(CNc2ncc(-c3ccc4c(c3)OCO4)n2C)cc1
→ 0, -6, 5, 4, 6, 1, 9, 0.99
> CN1CCN(C(=O)c2ccc3c(=O)n(CCc4ccccc4)c(=S)[nH]c3c2)CC1
→ 1, -14, -1, 4, 4, 2, 6, 0.97
> CCOC(=O)C1CCN(C(=O)CCCCn2c(=O)[nH]c3ccccc3c2=O)CC1
→ 2, -9, -7, -7, 1, 2, -5, 0.98
> CC(=O)C1=C(O)C(=O)N(CCC(=O)O)C1c1cccc(F)c1 (centres undefined)
→ 16, -5, 4, -3, 2, 1, -20, 1.1
> COc1ccc(C2C3=C(Nc4ncnn42)c2ccccc2CC3)cc1OC (centres undefined)
→ 27, -4, 0, 3, -1, 8, 1, 1.1
> CN1CCN(c2ccccc2NC(=O)c2ccc(Br)o2)CC1
→ 23, -10, 11, -4, 2, -4, 1, 1.1
> O=C(c1ccco1)N1CCN(c2nc(C3CC3)nc3sc4c(c23)CCCC4)CC1
→ 19, -2, 8, -9, 4, -1, 3, 1
> O=S(=O)(c1cccc(C(F)(F)F)c1)N1CCC(O)(c2cccnc2)CC1
→ 11, -1, 6, -3, 7, 1, 7, 0.98

# Other structures:
SMILES | MKP-1 inh | Cdc25B inh | AP ELISA ortho | MMP13 inh | FXIIa mix inh | Hsp90 block | FXIa mix inh | A340 absorber
COc1ccc(CCN2C(=O)c3[nH]nc(-c4ccccc4O)c3C2c2ccc(C)cc2)cc1OC (centres undefined) | 26 | 11 | 7 | -1 | 12 | -4 | 9 | 1
Cc1cc(NC(=O)CN2CCc3ccccc3C2)nc2c1c(=O)oc1ccccc12 | 23 | -6 | 3 | -4 | 1 | -4 | -6 | 1.1
Cc1ccccc1NC(=O)CN1CCC(NC(=O)Nc2ccccc2)CC1 | 3 | -6 | 0 | 3 | 11 | 4 | -2 | 0.97
Cc1cc(C)c(NC(=O)CS(=O)CC(=O)Nc2cccnc2)c(C)c1 (centres undefined) | -12 | -9 | -15 | 5 | 1 | 1 | 1 | 1.1
COc1cc2c(cc1OC)CN(C(=O)CSc1nc3[nH]ncc3c(=O)n1-c1ccccc1)CC2 | 4 | -6 | 11 | 7 | -5 | -1 | 17 | 0.99
O=C(NCc1cccs1)C1CCCN(c2ncccn2)C1 (centres undefined) | -4 | -6 | 8 | -4 | 0 | 0 | 8 | 1
CCCCNc1nc2c(c(=O)n(C)c(=O)n2C)n1CCC | -2 | -13 | 1 | 3 | 2 | -1 | 2 | 1
COc1ccc(CNc2nc3c(c(=O)n(Cc4ccc(Cl)cc4)c(=O)n3C)n2C)cc1 | 8 | -6 | -7 | 2 | 12 | -4 | 14 | 0.98
C=CCn1c(SCc2cc(=O)n3ccsc3n2)nc2sc(C)c(C)c2c1=O | 39 | 30 | 8 | 1 | -19 | -3 | 6 | 1.1
O=S(=O)(Nc1nc2ccccc2nc1NCCN1CCOCC1)c1cccc(Cl)c1 | 27 | 0 | 16 | -1 | 0 | -3 | 7 | 1.1

# Two compounds picked at random from the list so far:
SMILES | MKP-1 inh | Cdc25B inh | AP ELISA ortho | MMP13 inh | FXIIa mix inh | Hsp90 block | FXIa mix inh | A340 absorber
O=S(=O)(Nc1nc2ccccc2nc1NCCN1CCOCC1)c1cccc(Cl)c1 | 27 | 0 | 16 | -1 | 0 | -3 | 7 | 1.1
Cc1cc(NC(=O)CN2CCc3ccccc3C2)nc2c1c(=O)oc1ccccc12 | 23 | -6 | 3 | -4 | 1 | -4 | -6 | 1.1

# (more compounds)
SMILES | MKP-1 inh | Cdc25B inh | AP ELISA ortho | MMP13 inh | FXIIa mix inh | Hsp90 block | FXIa mix inh | A340 absorber
COc1ccc(C(=O)N(CN2CCCC2=O)c2cc(C)on2)cc1OC | 8 | 27 | 12 | 4 | 0 | -1 | 1 | 1
CN(c1ccccc1C(=O)Nc1ccc2c(c1)OCO2)S(C)(=O)=O | 28 | 2 | 13 | 3 | 16 | -8 | 4 | 1
COc1ccc(NC(=O)CC2Oc3ccccc3NC2=O)cc1 (centres undefined) | -7 | 5 | 10 | 4 | -34 | -3 | 1 | 0.98
CC(C)(C)C(=O)Nc1ccccc1C(=O)Nc1cccnc1 | 4 | -1 | 8 | -1 | 6 | -3 | 4 | 1
COc1cccc(C(=O)Nc2cccc(OC(C)=O)c2)c1 | 4 | 2 | 8 | 2 | -19 | 0 | 5 | 1.1
CCOC(=O)Cn1c(=O)n(C2CCCC2)c(=O)c2ccccc21 | 7 | -4 | 20 | 3 | 3 | -1 | 0 | 1
Cc1cc(NC(=O)CSc2n[nH]c(CC(C)C)n2)no1 | 10 | 4 | 19 | -1 | 7 | -6 | 9 | 1
CCOC(=O)C(Cc1cc(C(C)=O)ccc1OCC)C(=O)OCC | 5 | -12 | 9 | 1 | 3 | 3 | 4 | 1.1
Cc1cc(C(=O)NCCCN2CCCC2=O)cs1 | 22 | -6 | 17 | 0 | 0 | -6 | 15 | 1.1
CC1CN(C2CC(C)(C)NC(C)(C)C2)CCC1=O (centres undefined) | 8 | -7 | 1 | 4 | 2 | -2 | 1 | 1

# Structures from the list above containing a COOH group, in the order listed:
SMILES | MKP-1 inh | Cdc25B inh | AP ELISA ortho | MMP13 inh | FXIIa mix inh | Hsp90 block | FXIa mix inh | A340 absorber
O=C(O)c1ccccc1NS(=O)(=O)c1cccc2cccnc12 | -8 | -13 | -8 | -3 | 0 | -6 | 1 | 1
CSCC[C@@H](C(=O)O)N1Cc2ccccc2C1=O | 5 | -6 | 13 | 3 | 2 | 0 | 10 | 1
CC(=O)C1=C(O)C(=O)N(CCC(=O)O)C1c1cccc(F)c1 (centres undefined) | 16 | -5 | 4 | -3 | 2 | 1 | -20 | 1.1

# Screening data (PubChem)
